GIV Gai3 FP: blocks GIV peptide binding to rat Galpha-i3 | AID 1224905 | P08753 | Galpha-i3/FITC-GIV peptide fluorescence polarization, 90 min; stronger effect = lower value; scaled: aluminum fluoride 0%, vehicle 100% | actives 0.42% (n = 210,000) | percent of control (FP), % (test concentration not listed);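 active = replicate mean at 85% of control or lower, very high polarization wells dropped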;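 also: wells of about 15 µL received 100 nL stock; the first replicate is given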
Target sequence (P08753 whole entry, looked up): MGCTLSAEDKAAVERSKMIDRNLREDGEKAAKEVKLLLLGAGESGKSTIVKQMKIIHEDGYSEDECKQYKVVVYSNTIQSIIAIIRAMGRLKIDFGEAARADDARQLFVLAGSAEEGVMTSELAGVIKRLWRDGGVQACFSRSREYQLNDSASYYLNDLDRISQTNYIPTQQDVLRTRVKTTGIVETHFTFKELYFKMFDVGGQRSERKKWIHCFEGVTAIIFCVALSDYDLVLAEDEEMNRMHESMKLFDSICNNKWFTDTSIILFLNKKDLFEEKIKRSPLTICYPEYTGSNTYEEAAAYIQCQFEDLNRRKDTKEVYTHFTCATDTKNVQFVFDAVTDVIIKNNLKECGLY
Active calls of the source: *. The list is partial, so the mix of outcomes need not match the whole.

GIV Gai3 FP,mol
101,COc1ccc2nc(-n3nc(C)c4c3NC(=O)CC4c3ccc(OC)c(Br)c3)sc2c1 (configuration not stated)
104,FC(F)(F)c1cccc(N=c2scc(-c3ccc(Br)cc3)n2CCc2ccccc2)c1
113,O=C1CC(c2cccc(C(F)(F)F)c2)c2ccc3ccccc3c2N1 (configuration not stated)
106,COc1ccccc1Oc1ccc2c(c1)C(=O)N(c1ccccc1OC)C2=O
108,O=C1CCSc2c1cccc2C(=O)N1CCN(c2ccccn2)CC1
105,CC(C)(C)C(=O)OCCN1C(=O)C2C3c4ccccc4C(c4ccccc43)C2C1=O (configuration not stated)
101,c1nc2c(c(NC3CCN(Cc4ccoc4)CC3)n1)CCC2
103,CCc1nnc2c(Oc3ccccc3)nc3ccccc3n12
118,O=c1n(Cc2ccc3c(c2)OCO3)nc2c(S(=O)(=O)N3CCc4ccccc4C3)cccn12
102,COC(=O)c1ccccc1NC(=O)N1CCN(Cc2cc(=O)n3nc(-c4cccc(F)c4)sc3n2)CC1
105,CCOC(=O)CS(=O)(=O)c1cc2c(cc1NC(=O)C(C)C)n(C)c(=O)c(=O)n2C
106,COC(=O)c1sccc1NC(=O)N1CCCN(c2nc3cc(F)ccc3n3cccc23)CC1
94,COc1ccc(NC(=O)N2CCN(Cc3cc(=O)n4nc(-c5ccc(OC)cc5)sc4n3)CC2)cc1
108,CN(C)c1ccc(C2C(C#N)=C(N)N(c3ccc([N+](=O)[O-])cc3)C3=C2C(=O)CC(C)(C)C3)cc1 (configuration not stated)
101,O=C(Nc1cc2c3c(c1)C1CCCC1CN3CC1CCCC21)c1ccccc1 (configuration not stated)
105,COc1ccc(N2COc3ccc4c(C)cc(=O)oc4c3C2)cc1
104,Fc1ccc(-c2nc(-c3ccc(-c4csc(C5CC5)n4)cc3)no2)cc1F
122,COc1ccccc1NC(=O)Cn1cnc([N+](=O)[O-])n1
107,Cc1ccsc1C(=O)N1CCc2[nH]cnc2C12CCCCC2
112,Cc1nn(-c2ccccc2)c(Cl)c1C1C(C#N)=C(N)Oc2n[nH]c(-c3ccccc3)c21 (configuration not stated)
104,Cc1ccc2c(c1)NC(=O)C(C(=O)Nc1ccc(F)cc1)O2 (configuration not stated)
101,O=C(Nc1ccc(F)cc1F)C1CCN(Cc2cc3ccccc3n2Cc2cccc(F)c2)CC1
120,CCOC(=O)CN1C(c2ccc(Br)cc2)=Nc2ccc(Br)cc2C1c1ccccc1 (configuration not stated)
113,COc1ccc(C2NC(C(=O)O)Cc3c2[nH]c2ccccc32)cc1CN1CCN(c2ccc(F)cc2)CC1 (configuration not stated)
103,CC(C)C(=O)NCc1csc(C2CCCN(C(=O)C3CC3)C2)n1 (configuration not stated)
101,COc1ccc(N2CCN(c3cc(C)nc(-n4nc(C)cc4C)n3)CC2)cc1
102,COc1ccc(CCNC(=O)c2sc3nc(C)nc(N4CCN(C)CC4)c3c2C)cc1OC
104,Cn1c(SCC(=O)Nc2nnc(-c3ccccc3)s2)nnc1-c1cc2ccccc2o1
110,O=C(c1ccc2c(=O)n(Cc3ccc4c(c3)OCO4)c(=S)[nH]c2c1)N1CCN(C2CCCCC2)CC1
106,O=C(NCc1ccc2c(c1)OCO2)c1cccc(-c2cc(N3CCCC3)ncn2)c1

For reference, 14 of the compounds above:
GIV Gai3 FP,mol
104,Fc1ccc(-c2nc(-c3ccc(-c4csc(C5CC5)n4)cc3)no2)cc1F
122,COc1ccccc1NC(=O)Cn1cnc([N+](=O)[O-])n1
107,Cc1ccsc1C(=O)N1CCc2[nH]cnc2C12CCCCC2
112,Cc1nn(-c2ccccc2)c(Cl)c1C1C(C#N)=C(N)Oc2n[nH]c(-c3ccccc3)c21 (configuration not stated)
104,Cc1ccc2c(c1)NC(=O)C(C(=O)Nc1ccc(F)cc1)O2 (configuration not stated)
101,O=C(Nc1ccc(F)cc1F)C1CCN(Cc2cc3ccccc3n2Cc2cccc(F)c2)CC1
120,CCOC(=O)CN1C(c2ccc(Br)cc2)=Nc2ccc(Br)cc2C1c1ccccc1 (configuration not stated)
113,COc1ccc(C2NC(C(=O)O)Cc3c2[nH]c2ccccc32)cc1CN1CCN(c2ccc(F)cc2)CC1 (configuration not stated)
103,CC(C)C(=O)NCc1csc(C2CCCN(C(=O)C3CC3)C2)n1 (configuration not stated)
101,COc1ccc(N2CCN(c3cc(C)nc(-n4nc(C)cc4C)n3)CC2)cc1
102,COc1ccc(CCNC(=O)c2sc3nc(C)nc(N4CCN(C)CC4)c3c2C)cc1OC
104,Cn1c(SCC(=O)Nc2nnc(-c3ccccc3)s2)nnc1-c1cc2ccccc2o1
110,O=C(c1ccc2c(=O)n(Cc3ccc4c(c3)OCO4)c(=S)[nH]c2c1)N1CCN(C2CCCCC2)CC1
106,O=C(NCc1ccc2c(c1)OCO2)c1cccc(-c2cc(N3CCCC3)ncn2)c1

Next part.
GIV Gai3 FP,mol
104,CCCc1[nH]n(-c2ccc(F)cc2)c(=O)c1C=NCCN1CCOCC1
99,COc1cccc(C(=O)Nc2ccccc2SCc2nnc(-c3ccccc3)o2)c1
105,Cc1ccc(S(=O)(=O)N(CC(O)CN2CCCC2)c2cccc(C)c2)cc1 (configuration not stated)
101,CCOc1ccc(-c2csc(Cc3nc(-c4ccc(OC)cc4)no3)n2)cc1
121,COc1ccc([C@@H]2[C@@H](C(=O)c3ccc(C)cc3C)N3c4ccccc4C=C[C@@H]3C2(C#N)C#N)cc1OC
100,O=C1Nc2cc(Cl)ccc2Oc2ccc(S(=O)(=O)N3CCc4ccccc4C3)cc21
106,O=S(=O)(c1cc(-c2nnc(C3CCC3)o2)co1)N1CCC(N2CCCCC2)CC1
107,CC1(C)CC2(CC(C)(c3csc(N)n3)OC2=O)C(=O)O1 (configuration not stated)
103,Cc1nc(-c2cc(S(=O)(=O)Nc3cccc(F)c3)c(C)s2)sc1C
99,Cc1cc(C2CCCN2Cc2ccccc2O)no1 (configuration not stated)
102,Cc1ccc(CNC(=O)CCc2nc(N3CCCCC3)c3c(-c4ccc(F)cc4)noc3n2)cc1
103,Cc1cccc(-c2cnc(N3CCC(C(=O)N(C)Cc4ccccc4)CC3)nc2)c1
119,CCOc1ccc(NC(=O)c2ccc(N3CC4CC(C3)c3cccc(=O)n3C4)c(NC(=O)c3c(F)cccc3F)c2)cc1 (configuration not stated)
110,CCOC(=O)C1=C(C)NC(C)=C(C(=O)OCC)C1c1cn(-c2ccccc2)nc1-c1ccc([N+](=O)[O-])cc1
116,O=C1/C(=C/c2ccc(-c3ccc([N+](=O)[O-])cc3)o2)C=C(c2ccccc2)N1c1ccc(Br)cc1
110,CCOc1ccccc1NC(=O)c1sc2ncn(CC(=O)Nc3cccc(C(F)(F)F)c3)c(=O)c2c1C
104,COc1ccc(-c2cn3cc(C)ccc3n2)cc1Br
102,CCCNC(=O)N1c2ccccc2NC2=C(C(=O)CC(C)(C)C2)C1c1ccc(F)cc1 (configuration not stated)
105,O=c1c(S(=O)(=O)N2CCCC2)cccn1Cc1ccc(Cl)cc1
109,COC(=O)C1=C(N)N(c2ccc(S(N)(=O)=O)cc2)C2=C(C(=O)CCC2)C1c1cccc([N+](=O)[O-])c1 (configuration not stated)
100,CCCNC(=O)C(C)C1CCN(S(=O)(=O)c2ccc(Br)s2)CC1 (configuration not stated)
105,Cc1[nH]c(-c2nnc(C3CCC3)o2)c(C)c1S(=O)(=O)NC(C)(C)C
92,CCCn1c(SCc2cc(=O)n3ccccc3n2)nc2c3cc(OC)ccc3n(C)c2c1=O
105,CC(NC(=O)CSc1nnc(-c2ccc3c(c2)OCCO3)n1C)c1ccc2c(c1)OCCCO2 (configuration not stated)
100,Cc1nc2scc(C)n2c(=O)c1NC(=O)COc1ccc(F)cc1
108,O=C1CCCC2=C1C(c1cn[nH]c1-c1ccc(F)cc1)C1=C(CCCC1=O)O2
104,CCCCN(CC)c1ccc2nnc(CCc3nc(-c4ccccc4)no3)n2n1
116,CSCCC(NS(=O)(=O)c1cccc2nsnc12)C(=O)O (configuration not stated)
105,COc1cc(Nc2nc(-c3nnn(-c4cc(Cl)ccc4OC)c3C)ns2)cc(OC)c1
102,CCCc1[nH]n(-c2ccc(F)cc2)c(=O)c1C=NCc1ccc2c(c1)OCO2

Fetched by structure from above (two):
GIV Gai3 FP,mol
110,O=C(c1ccc2c(=O)n(Cc3ccc4c(c3)OCO4)c(=S)[nH]c2c1)N1CCN(C2CCCCC2)CC1
116,O=C1/C(=C/c2ccc(-c3ccc([N+](=O)[O-])cc3)o2)C=C(c2ccccc2)N1c1ccc(Br)cc1

(more compounds)
GIV Gai3 FP,mol
109,COC(=O)C1=C(C(=O)OC)SC(=C2C(=S)C(C)(C)N(C(=O)c3cccc(OC)c3)c3c(OC)cccc32)S1
102,CC(C)Cn1c(=O)c(-c2ccc(C(=O)N3CCCN(C)CC3)cc2)nc2ccccc21
108,CCc1ccc(C2=NN(c3ccccc3)C3(SC(C(C)=O)=NN3c3ccc(Cl)cc3)c3ccccc32)cc1 (configuration not stated)
101,Cc1cc(C)cc(NC(=O)CCc2c(C)nn(-c3ccc4nncn4n3)c2C)c1
104,CCOc1cccc(CNC(=O)c2sc3ncccc3c2-n2cccc2)c1
104,O=C(CSc1ncccc1C(=O)NCc1ccccc1Cl)Nc1ccc(Br)cc1
99,O=C(C1CCCN(S(=O)(=O)c2cc(-c3noc(C4CCC4)n3)cs2)C1)N1CCc2ccccc21 (configuration not stated)
106,CC1(C)Nc2ccccc2-c2c1ssc2=Nc1ccccc1
112,COc1cc(OC)c(NC(=O)N2CCCC(C)(C(=O)NCc3ccc(F)cc3)C2)cc1Cl (configuration not stated)
99,CN(C)S(=O)(=O)c1ccc(-c2nnc(C(=O)NC3CCN(Cc4ccccc4)CC3)o2)cc1
103,COc1ccc(N2CCN(C(=O)CSc3nc4[nH]ncc4c(=O)n3-c3ccc(Cl)cc3)CC2)cc1
102,Cc1ccnc(SCc2nc(-c3ccc4c(c3)nnn4C3CCCC3)no2)n1
108,CCCCn1c(SCc2nc(-c3ccccc3)no2)nc2cc3c(cc2c1=O)OCO3
111,CCSc1nc2c(=O)[nH]cnc2n1C1OC(CO)C(O)C1O (configuration not stated)
111,Cc1ccc(-n2nc3c(c2NC(=O)c2cc(Br)ccc2Cl)CS(=O)(=O)C3)cc1
118,O=C(c1ccc(F)cc1)N1c2ccccc2CCc2ccccc21
106,CCN(CC)C(=O)N1CCN(c2ccc(Nc3ccnc4cc5ccccc5cc34)cc2)CC1
167,CCOC(=O)C1=C(O)/C(=C/c2ccc(N(C)C)cc2)SC1=Nc1ccc(F)cc1
104,Cc1nc2sccn2c(=O)c1NC(=O)c1ccc(Br)cc1
116,CC1(C(=O)O)NC(c2ccccc2O)C2C(=O)N(c3ccccc3)C(=O)C21 (configuration not stated)
103,O=C(Cn1c(N2CCCCC2)nc2ccsc2c1=O)N1CCN(c2ccc(F)cc2)CC1
107,Cc1c(C(=O)N2CCC(C(N)=O)(N3CCCCC3)CC2)sc2ncn(C)c(=O)c12
102,NS(=O)(=O)c1ccc(CCNC(=O)CSc2nc3ccccc3c(=O)n2CCC(=O)NC2CCCCC2)cc1
109,COc1cccc(C2C(N3C(=O)c4ccccc4C3=O)C(=O)N2c2cccc(C)c2)c1 (configuration not stated)
103,COC(=O)C1=CN(Cc2ccc(OC)cc2)C=C(C(=O)OC)C1c1ccc(OC)c(OC)c1OC
106,O=C(Oc1ccc(-c2noc(-c3ccc(OC(=O)c4ccncc4)cc3)n2)cc1)c1ccncc1
106,CC(=O)N1CCc2cc(CNS(=O)(=O)c3ccc4c(c3)oc(=O)n4C)ccc21
98,CCC(C)NC(=O)NC1CCN(C2=NS(=O)(=O)C(c3ccc(Cl)cc3)=C2C)CC1 (configuration not stated)
99,COc1cc(NC(=O)c2cc(S(=O)(=O)N3CCOCC3)ccc2Br)c(C(=O)O)cc1OC
100,O=S(=O)(Nc1cccc(-c2cn3ccsc3n2)c1)c1ccc(Oc2ccccc2)cc1

GIV Gai3 FP,mol
107,Cc1ccc([N+](=O)[O-])cc1S(=O)(=O)n1c(SCc2cccc([N+](=O)[O-])c2)nc2ccccc21
102,Cc1nn(CC(=O)NC(C)(C)C)c(C)c1S(=O)(=O)N1CCC(C(=O)N2CCc3ccccc32)CC1
108,CCCCNC(=O)CSc1nc2ccccc2n1S(=O)(=O)c1ccc(NC(C)=O)c(Cl)c1
107,O=C(CSc1nc(NCCc2ccccc2)c2ccccc2n1)NCC1CCCO1 (configuration not stated)
98,CC(C)c1cc(C2CCCN2S(=O)(=O)c2ccc(F)cc2)on1 (configuration not stated)
109,c1cc(-c2nnc(CC3CCCC3)o2)ccn1
105,CCN(CC)S(=O)(=O)c1ccc(C(=O)Nc2c3c(nn2-c2ccc([N+](=O)[O-])cc2)CS(=O)(=O)C3)cc1
100,CCc1ccccc1NC(=O)c1cc(S(=O)(=O)N2CCC(Cc3ccccc3)CC2)ccc1F
102,CNC(=O)c1ccc(-c2nc3cc(NS(=O)(=O)c4ccc(Br)cc4)ccc3n2C)cc1
109,Cc1c(C(=O)N(C)C2CCCCC2)sc2ncn(CC(=O)N3CC(C)CC(C)C3)c(=O)c12 (configuration not stated)
102,Cc1c2c(nn1-c1ccc(SCc3ccc(Cl)cc3)nn1)CCC2
100,CCc1nccn1Cc1noc(CC2CCCCC2)n1
99,COc1ccc(N2CCN(S(=O)(=O)c3cc(-c4noc(C5CC5)n4)cs3)CC2)cc1
117,Cc1ccc(Cl)cc1NC(=O)c1ccc(N2CC3CC(C2)c2cccc(=O)n2C3)c(NC(=O)c2ccc(F)cc2)c1 (configuration not stated)
105,COc1ccc(Br)cc1C1C(N2C(=O)c3ccc([N+](=O)[O-])cc3C2=O)C(=O)N1c1ccc(Cl)c(Cl)c1 (configuration not stated)
120,O=C(c1ccccc1)N1N=C(C(F)(F)F)CC1(O)c1ccccc1O (configuration not stated)
100,Oc1ccc(Cl)cc1C1=Nc2ccccc2N=C(c2ccc(Br)cc2)C1
111,O=C(O)c1c2c(nc3ccc(S(=O)(=O)N4CCC(C(=O)NCc5ccccc5Cl)CC4)cc13)CCCC2
96,COCCn1c(=S)[nH]c2cc(Cl)ccc2c1=O
107,CCCCNC(=O)CCc1nnc2c(N3CCCCC3)nc3ccccc3n12
116,COc1ccc(S(=O)(=O)n2c(SCC(=O)Nc3ccccc3OC)nc3ccccc32)cc1
129,Cc1cccc(Nc2ccc3noc4c3c2C(=O)c2ccccc2-4)c1

High-throughput results from PubChem.
